High-throughput results (PubChem)
Measles inh – inhibitors of measles virus growth in cells, primary screen, measles RdRp inhibitor project, cell-based, single point, HTS; actives 0.1% (n = 33,000); infected Vero cells, GFP fluorescence, 64 h; active compounds read low; z-score (no concentration beside the values);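 active = z-score under -3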;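 also: score is relative to mean and SD of the compound wells of a plate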
An asterisk follows results filed as active. Not all compounds are listed; the hit share may differ from the screen's.

Measles inh	SMILES
1.6	COCCn1c(=S)[nH]c2cc(C(=O)N3CCCC3)ccc2c1=O
-0.3	CCOCCCNS(=O)(=O)c1ccc2c(c1)oc(=O)n2C
0.01	O=C(NCc1nnc(SCC(=O)N2CCCC2)o1)c1cccs1
-1.2	Cc1cc(C(F)(F)F)nn1CC(=O)Nc1sc2c(c1C#N)CCCC2
-0.85	Cc1ccc(-c2c(C(=O)Nc3ccc4c(c3)OCCO4)oc(=O)c3ccccc23)cc1
-2.6	Cc1cc(C)c2c(N)c(C(=O)Nc3cccc4ccccc34)sc2n1
-0.88	CCN(CC)CC(=O)c1c(C)[nH]c2cc(C)ccc12
-0.82	CC(=O)Nc1ccc(NC(=O)CN2CCN(S(=O)(=O)c3ccc(Cl)cc3)CC2)cc1
-0.14	O=[N+]([O-])c1cccc(C2SCCN2S(=O)(=O)c2ccc(Br)cc2)c1 (configuration not stated)
1.3	CCC(Cc1ccccc1)NC(=O)c1oc(=O)c2ccccc2c1-c1ccc(C)cc1 (configuration not stated)
1.5	O=C(O)CCNC(=O)c1ccccc1F
-0.19	CCOCCOC(=O)C1=C(C)NC2=C(C(=O)CC(C)(C)C2)C1c1ccc(C)cc1 (configuration not stated)
0.7	COc1ccc(Nc2c(-c3ccc(C)o3)nc3ccccn23)cc1
-0.98	Cc1ccc(NC(=O)c2ccc([N+](=O)[O-])o2)nc1
-0.45	Cc1ccc2nc(-c3ccc(O)cc3)sc2c1
0.85	O=C1CCN(S(=O)(=O)c2ccc(Br)cc2)CCN1
2.1	COc1cc(C(=S)N2CCOCC2)ccc1OC(=O)c1cccc2ccccc12
1.3	Cc1ccc(NC(=O)c2cccc(Br)c2)c(Br)c1
0.86	Cc1cc(N)n2nc(C)c(C#N)c2n1
0.59	CCOc1ccccc1NC(=O)c1c(NCc2cccs2)sc2c1CCCC2
-0.57	COc1ccc2c(c1)C1C=CCC1C(c1ccc(C(=O)O)cc1)N2 (configuration not stated)
0.31	Cn1c(C(=O)O)c(CC(=O)NCc2cccnc2)c2ccccc21
-0.09	CCc1ccc(-c2csc(Nc3ncccc3C)n2)cc1
-0.77	Cc1onc(-c2ccccc2)c1C(=O)Nc1cccc(Br)c1
-2	Cc1ccc(C2=NN(CCC(=O)N3CCC(C(N)=O)CC3)C(=O)CC2)cc1
-0.57	COCCNC(=O)c1sc2cc(Cl)ccc2c1Cl
0.13	O=C(CCOc1ccccc1)NCC1OCCc2ccccc21 (configuration not stated)
-0.11	C=CCn1c(CCCNC(=O)Cc2ccccc2)nc2ccccc21
0.67	COc1cccc(OC)c1C(=O)Nc1c2c(nn1-c1ccc(C)cc1)CS(=O)C2 (configuration not stated)
-0.91	COCCN1C(=O)c2ccccc2C(C(=O)Nc2ccc(OC)c(Cl)c2)C1c1cn(C)c2ccccc12 (configuration not stated)
-1.3	COc1ccc(NC(=O)C2C3NC(=S)N(c4ccc(F)cc4)C2(C)Oc2ccc(OC)cc23)cc1 (configuration not stated)
2.6	O=C(CSc1nnnn1C1CCCCC1)N1CCOCC1
-1.4	CCOC(=O)C(=O)NCC1(c2ccccc2)CCCC1
-0.4	COc1ccc(N2C(=O)CC(Sc3nc4ccccc4c(=O)n3-c3ccccc3)C2=O)cc1 (configuration not stated)
0.72	COc1ccccc1CNC(=O)C1CCN(S(=O)(=O)N2CCCC2)CC1
-1.3	Cc1nn(C(C)(C)C)c(OC(=O)c2ccccc2C(F)(F)F)c1S(=O)(=O)c1ccccc1
-0.4	CCOc1ccc(C2=CC(c3cccc(OC)c3)c3ccccc3O2)cc1 (configuration not stated)
-0.42	COc1ccc2cc3cc(C(=O)N4CCN(c5cccc(C)c5C)CC4)sc3nc2c1
-0.59	COc1ccccc1C1C2=C(CCCC2=O)Nc2nc(SCc3ccccc3)[nH]c(=O)c21 (configuration not stated)
-0.21	CC(=O)Nc1nc(C)c(-c2csc(Nc3ccccc3C)n2)s1
0.41	O=C(O)CCC(=O)Nc1cccc(NC(=O)c2ccc(Br)cc2)c1
0.12	O=C1Nc2ccc(Br)cc2C(O)(C(=O)NCCCN2CCOCC2)N1c1ccc(Cl)cc1 (configuration not stated)
-1.5	O=C1C(=O)N(Cc2cccnc2)C(c2ccncc2)/C1=C(\O)c1ccc(F)cc1 (configuration not stated)
-0.42	CCC(C)N1C(=O)C2C(C(=O)Nc3ccc(C)c(C)c3)C3C=CC2(O3)C1C(=O)NC1CCCC(C)C1C (configuration not stated)
-0.24	CC(=O)OC(C)C12CC3CC(CC(C3)C1)C2 (configuration not stated)
-1.3	CCOCCCN1C(=O)c2ccccc2C1C(=O)NC1CCC(C)CC1 (configuration not stated)
-0.09	Cc1ccc(C(=O)N2CCN(C(=O)c3ccc(C)c(C)c3)C(C)C2)cc1C (configuration not stated)
1.2	CN1C(=O)C(O)(CC(=O)c2ccc3ccccc3c2)c2ccccc21 (configuration not stated)
0.99	CCc1ccc(-c2csc(Nc3cc(C)ccn3)n2)cc1
1.7	Cc1ccc2c(c1)N(CCCC(=O)NC1CCC(C)CC1)C(=O)CO2 (configuration not stated)

Other records
Measles inh	SMILES
0.81	Cc1cc(C(F)(F)F)nc2sc(C(=O)c3cccc(Cl)c3)c(N)c12
-0.12	CC(=O)Nc1ccc(OC(=O)c2ccccc2NC(=O)c2ccccc2Br)cc1
1.4	Cc1ccc(NC(=O)CN2C(=O)c3ccccc3Sc3ccc(C(=O)N4CCCC4)cc32)cc1C
-1.7	CCOC(=O)C1=C(C)Nc2nc(SCc3ccccc3F)nn2C1c1ccc(Br)cc1 (configuration not stated)
-0.28	O=C1CC(c2ccco2)CC2=C1C(c1cccs1)N(C(=O)c1ccccc1)c1ccccc1N2 (configuration not stated)
-0.05	CC(=O)N1CCc2cc(Br)cc(S(=O)(=O)NC(c3ccccc3)c3ccccc3)c21
-0.7	COc1ccc2[nH]c(=O)cc(C(=O)O)c2c1
0.39	COc1ccccc1NC(=O)CCc1nc(-c2ccc(C)cc2)no1
0.41	CC(C)CNC(=O)C(=O)NCc1cccnc1
1.9	COc1cccc(C(=O)N(c2ccccc2)C2CC(C)N(C(C)=O)c3ccccc32)c1 (configuration not stated)

Fetched by compound from the list above, 7 records:
Measles inh	SMILES
-0.28	O=C1CC(c2ccco2)CC2=C1C(c1cccs1)N(C(=O)c1ccccc1)c1ccccc1N2 (configuration not stated)
-0.7	COc1ccc2[nH]c(=O)cc(C(=O)O)c2c1
-0.05	CC(=O)N1CCc2cc(Br)cc(S(=O)(=O)NC(c3ccccc3)c3ccccc3)c21
0.41	CC(C)CNC(=O)C(=O)NCc1cccnc1
1.9	COc1cccc(C(=O)N(c2ccccc2)C2CC(C)N(C(C)=O)c3ccccc32)c1 (configuration not stated)
0.39	COc1ccccc1NC(=O)CCc1nc(-c2ccc(C)cc2)no1
-1.7	CCOC(=O)C1=C(C)Nc2nc(SCc3ccccc3F)nn2C1c1ccc(Br)cc1 (configuration not stated)

Back to the main list, starting 3 compounds before the break.
Measles inh	SMILES
0.39	COc1ccccc1NC(=O)CCc1nc(-c2ccc(C)cc2)no1
0.41	CC(C)CNC(=O)C(=O)NCc1cccnc1
1.9	COc1cccc(C(=O)N(c2ccccc2)C2CC(C)N(C(C)=O)c3ccccc32)c1 (configuration not stated)
-0.34	Cc1ccc(C2CC(C(F)(F)F)n3nc(C(=O)N(C)C4CCCCC4)c(Cl)c3N2)cc1 (configuration not stated)
0.05	COc1ccc(Cl)cc1NC(=O)c1cc(-c2ccccc2)nc2ccccc12
-1.4	COc1ccc(-n2c(C)c(C(C)=O)c3cc(OC(=O)c4ccccc4OC(C)=O)ccc32)cc1
1	CC(=O)C1C(=O)CC(C)(O)C(C(C)=O)C1c1ccc2c(c1)OCO2 (configuration not stated)
-0.18	FC(F)(F)c1cc(-c2ccc(Cl)cc2)nc(NCc2cccs2)n1
-1	CCOC(=O)c1ccc(NC2=NC3(CCCCC3)Cc3ccccc32)cc1
0.39	Clc1ccc(Cc2nn[nH]n2)cc1
0.74	CCOc1cc(C2Nc3ccccc3-c3nnc(SCC)nc3O2)cc(Cl)c1O (configuration not stated)
0.08	O=C(NCCN1CCOCC1)c1cc(-c2cccs2)on1
0.55	Cc1cc(C)cc(NC(=O)C2CCN(S(=O)(=O)c3ccc(Cl)cc3)CC2)c1
0.55	NC(=O)c1ccc(CN2CCc3ccccc3C2)cc1
1.8	Cn1c(=O)cc(SCC(=O)N2CCCCC2)c2ccccc21
-0.11	CC(C)(C)c1ccc(OCCCC(=O)Nc2nccs2)cc1
-0.03	CC1=CC(C)C2(CO)COC(c3cccnc3)C1C2C (configuration not stated)
-1.2	COCCCNc1nc(-c2ccccc2)nc2ccccc12
0.5	COC(=O)COc1ccc(C2C3=C(CC(C)(C)CC3=O)OC3=C2C(=O)CC(C)(C)C3)cc1
-0.84	O=C(Nc1c2c(nn1-c1ccc(F)cc1)CS(=O)(=O)C2)c1ccc(Cl)cc1
-1.2	Cc1ccc(S(=O)(=O)c2nc(-c3cccs3)oc2SCC(=O)c2ccccc2)cc1
-0.33	COCCOC(=O)C1=C(C)NC2=C(C(=O)CC(C)(C)C2)C1c1ccc(OC)cc1 (configuration not stated)
0.93	COc1ccc(Cl)cc1N(C)S(=O)(=O)c1cccc2nsnc12
-2	CCCC1Nc2c(C(=O)O)ccc([N+](=O)[O-])c2C2C=CCC12 (configuration not stated)
1.4	CSc1snc(-c2ccccc2)c1C#N
-0.28	Cc1nc2ccc([N+](=O)[O-])cc2c(=O)[nH]1
0	COc1ccc2c(Cl)c(C(=O)N3CCCCC3)sc2c1Cl
-0.4	COc1cc(C2C3=C(CCCC3=O)OC3=C2C(=O)CCC3)cc(OC)c1OC
0.23	C=CCN(c1ccccc1)S(=O)(=O)c1ccc2[nH]cc(C(=O)NCc3ccccn3)c(=O)c2c1
-1.9	CC(=O)CC1OC(=O)C(Br)=C1NCc1ccccc1 (configuration not stated)
-0.07	COc1ccccc1-c1nnc(SCC(=O)OC(C)C)o1
-1.2	O=C1C(=O)N(CCO)C(c2ccc(Br)cc2)/C1=C(\O)c1ccccc1 (configuration not stated)
-0.31	O=C(c1ccc2c(c1)C(=O)N(c1ccccn1)C2=O)N1CCN(c2ccccc2)CC1

Continued; it opens with the 3 that closed the last part.
Measles inh	SMILES
-0.07	COc1ccccc1-c1nnc(SCC(=O)OC(C)C)o1
-1.2	O=C1C(=O)N(CCO)C(c2ccc(Br)cc2)/C1=C(\O)c1ccccc1 (configuration not stated)
-0.31	O=C(c1ccc2c(c1)C(=O)N(c1ccccn1)C2=O)N1CCN(c2ccccc2)CC1
-1.1	CCC(C)(C(=O)NC1CCCC1)N(CC1CCCO1)C(=O)C1CCC(=O)N1 (configuration not stated)
-1.2	Fc1ccccc1-n1nnnc1SCc1ccccc1Cl
-0.41	CCOC(=O)c1c(N=CC2C(=O)NC(=S)NC2=O)sc2c1CCCCC2
-0.47	O=C(Cn1cnc2sc3c(c2c1=O)CCCC3)NCC(=O)N1CCN(c2ccccc2F)CC1
0.84	Cc1cc(N2CCOCC2)nc(NCc2ccccc2)n1
0.46	O=C(Nc1nc2c(cc3c4c(cccc42)CC3)s1)c1ccc(S(=O)(=O)N2CCc3ccccc32)cc1
2.6	COc1cc(C2NC(=O)NC(O)(C(F)(F)F)C2C(=O)c2ccccc2)ccc1O (configuration not stated)
0.28	CC1=C(C(=O)OC2CCCCCCC2)C(c2cccc(Oc3ccccc3)c2)NC(=O)N1 (configuration not stated)
-0.66	O=C(c1ccc2c(=O)n(-c3ccc(F)cc3)c(=S)[nH]c2c1)N1CCc2ccccc2C1
-2.2	COC(=O)C1=CN(Cc2ccc(Cl)cc2)C=C(C(=O)OC)C1c1cccc(Cl)c1
-0.12	CC1=C(C(=O)Nc2cc(C)ccn2)C(c2cc(C)sc2C)C2=C(CC(C)(C)CC2=O)N1 (configuration not stated)
1.7	COc1ccc(NC(=O)Cn2nc([N+](=O)[O-])c(Cl)c2C)cc1OC
0.4	COc1ccccc1CNS(=O)(=O)c1ccc(F)c(C(=O)Nc2ccc(C)c(C)c2)c1
-0.34	O=c1c2ccccc2n(Cc2cccc([N+](=O)[O-])c2)c(=O)n1C1CCCC1
0.71	CCCCC1CCC(C(=O)Nc2c3c(nn2-c2ccc(F)cc2)CS(=O)C3)CC1 (configuration not stated)
-0.37	COc1ccc(Cl)cc1S(=O)(=O)N1CCN(C(=O)c2ccco2)CC1
-1	CCOc1ccc(NC(=O)c2nn(-c3ccc(OC)cc3)c(=O)c3ccccc23)cc1
0.43	CC(=O)N1c2ccc(S(=O)(=O)NC(C)(C)C)cc2CC1C (configuration not stated)
-0.39	COc1ccc(CSc2nc3ccccc3s2)cc1[N+](=O)[O-]
0.85	O=C(NCCCN1CCC(N2CCCCC2)CC1)c1cc(-c2cccnc2)nc2ccccc12
-1.1	CC(=O)n1cc(Nc2ccccc2O)c2ccccc21
-0.43	C=CCSc1ncccc1C(=O)NC1CC1
-1.1	O=c1c2c(nc(SCc3cccc(F)c3)n1-c1ccc(Cl)cc1)CCS2
-0.5	COc1ccc(S(=O)(=O)N2CCN(CCO)CC2)cc1
-0.22	O=C(CC(=O)c1ccccc1)Nc1ccccc1C(F)(F)F
1	CSc1ccccc1NC(=O)c1nn2c(c1Br)NC(c1ccc(Br)o1)CC2C(F)(F)F (configuration not stated)
0.54	COc1ccc(C(=O)N2CC(C)OC(C)C2)cc1[N+](=O)[O-] (configuration not stated)
0.86	Cc1c(C(=O)NC(C)c2ccccc2)oc2ccc(S(=O)(=O)N3CCCCCC3)cc12 (configuration not stated)
-0.1	COc1ccc(NC(=O)c2cc3c(CO)cnc(C)c3oc2=Nc2ccccc2)cc1Cl
0.15	Cc1ccc(C)c(Cc2c(C)nc3c(C(=O)NCc4ccccc4Cl)cnn3c2C)c1
-0.71	Cc1nc2c(oc3ccccc32)c(=O)[nH]1
0.65	CN(C)c1ccc(C2CC(=O)C3=C(C2)Nc2ccccc2NC3c2ccccc2)cc1 (configuration not stated)
